# Rango-impB inh: qHTS Assay for Inhibitors of Rango (Ran-regulated importin-beta cargo) - Importin beta complex formation | Importin subunit beta-1 (Homo sapiens), Q14974 | Rango CFP/YFP FRET sensor + importin beta, 45 min | Potency, µM (series often up to 92.2 µM), without a hit: at the highest dose inhibition of complex formation | hit rate 0.031% among 340,000 | AID 540263, 2011; active = rising FRET ratio curve, often small or poorly fitted; inconclusive = mostly compound fluorescence or quenching in the first reads; inactive = flat curves in all reads;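 further: potency means the concentration at half of the fitted maximal effect; 0% = DMSO wells and 100% = buffer wells lacking importin beta; nearly all actives have a fitted effect of over 15% in size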
#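 Inhibition scored from the CFP 486 nm/YFP 530 nm FRET ratio 45 min after adding 0.125 microM importin beta to 50 nM Rango biosensor preincubated 5 min with compound (room temperature, PBS with DTT, Tween-20, BSA). No-importin wells as positive control.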
# miR-21 reporter: qHTS Assay for Modulators of miRNAs and/orActivators of miR-21; HeLa miR-21 FLuc reporter, luciferase, 48 h; Potency, µM (titrated, usually from 38.3 µM), without a hit: at the top dose reporter change, positive = more light; 340,000 tested, under 10 active; AID 2288, 2010; active = well fitted rising curve with a large enough effect; inconclusive = small, poorly fitted or top-dose-only effect; inactive = no such curve, though single readings can be large or run the other way;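 further: % of control where 0% means no effect; miR-21 action dims this reporter so a rising signal means less miR-21 action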
#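 HeLa cells endogenously expressing miR-21, stably carrying CMV-driven firefly luciferase with a downstream miR-21 binding site, 2000 cells/well. Titrations up to approximately 40 uM, 48 hours; luciferase luminescence read.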
# Rango release inh: qHTS Assay for Inhibitors of RanGTP induced Rango (Ran-regulated importin-beta cargo) - Importin beta complex dissociation. Biochemical FRET Rango-importin beta, RanGTP-induced dissociation. AID 540253, 2011. Potency, µM (titrated, usually from 46.1 µM), without a hit: at the top dose activity change, negative = inhibition. hit rate 0.071% among 340,000. Snurportin-1 (Homo sapiens) + GTP-binding nuclear protein Ran (Homo sapiens) + Importin …; active means falling FRET ratio curve, often poorly fitted, with flat reads before Ran was added; inconclusive means other falling curves, or compound fluorescence or quenching; inactive means flat or rising ratio curve;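 further: potency means the concentration at half of the fitted maximal effect; % of control where 0% means no effect; nearly all actives have a fitted effect of over 45% in size; -100% = wells without RanGTP and RCC1; the record marks most hits as doubtful in a second field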
#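 Rango/importin beta premix (0.1/0.25 uM final), PBS + 1 mM DTT + 0.02% Tween-20 + 0.1% BSA; cpd 5 min RT; FRET pre-read; + RanGTP-RCC1 (0.6 uM Ran, 2 mM GTP, 0.2 uM RCC1); 45 min RT; FRET post-read, ex 430, em 486/530 nm.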
# GLA inh pH 4.5: qHTS Assay for Inhibitors of Human alpha-Galactosidase at pH 4.5; Alpha-galactosidase A (Homo sapiens), P06280; 230,000 tested, under 10 active; activity change, negative = inhibition, % at 105 µM; purified enzyme, 4-MU-alpha-Gal fluorescence, pH 4.5; inconclusive = small, poorly fitted or top-dose-only inhibition, or a rising curve; inactive = flat fitted curve, though single readings scatter; no compound was filed as active;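 further: 0% = full activity with enzyme and -100% = basal without enzyme; dose as in the result columns while the protocol names 77 µM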
# Target sequence (P06280 whole entry, looked up): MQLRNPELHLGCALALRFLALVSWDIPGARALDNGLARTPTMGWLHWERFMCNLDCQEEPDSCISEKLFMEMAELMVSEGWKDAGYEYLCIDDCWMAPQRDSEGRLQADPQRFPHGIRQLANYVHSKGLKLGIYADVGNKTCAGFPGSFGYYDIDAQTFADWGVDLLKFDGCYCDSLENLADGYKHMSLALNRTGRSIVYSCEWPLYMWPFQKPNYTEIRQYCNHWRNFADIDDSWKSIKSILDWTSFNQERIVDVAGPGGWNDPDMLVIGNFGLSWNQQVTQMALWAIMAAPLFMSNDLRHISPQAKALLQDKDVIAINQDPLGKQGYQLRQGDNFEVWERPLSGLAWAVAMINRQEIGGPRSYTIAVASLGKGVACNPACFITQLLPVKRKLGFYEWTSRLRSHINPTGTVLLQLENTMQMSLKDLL
# Active calls of the source: *; u = inconclusive; x = not tested or not shown.
mol	Rango-impB inh	miR-21 reporter	Rango release inh	GLA inh pH 4.5
O=C(CC1C(=O)NCCN1Cc1ccc(-c2ccccc2)cc1)NCC1CCOCC1 (configuration not stated)	0.0%	1.7%	-19.4%	-4.5
O=C(CNS(=O)(=O)c1ccc(Br)s1)NCCc1ccc(Cl)cc1	0.8%	4.6%	-3.6%	x
CCOC(=O)C1CCN(C(=O)CN2C(=O)NC3(CCCCC3)C2=O)CC1	-3.7%	x	4.2%	x
O=C(O)C1=C[C@H](c2ccc(Br)cc2)C[C@H](OCCCCO)O1	0.0%	-0.7%	8.2%	-0.7
Cc1ccsc1CN(C(=O)c1ccccc1)C1CCS(=O)(=O)C1 (configuration not stated)	-0.4%	-0.9%	16.9%	x
O=C(O)C1C2CCC(O2)C1C(=O)Nc1ccc(F)c(Cl)c1 (configuration not stated)	3.9%	0.4%	-16.3%	x
Cc1sc2ncnc(N3CCC(C(=O)NNC(=O)COc4ccc(Cl)cc4)CC3)c2c1C	-1.4%	x	-10.6%	x
CC(C)(C)NC(=O)CCN(/N=C/c1ccccc1)C1=NS(=O)(=O)c2ccccc21	-0.4%	-1.1%	-10.2%	x
CCN(CC(=O)Nc1c(F)cccc1F)C(=O)C1CCN(S(=O)(=O)c2ccc(F)cc2)CC1	-0.1%	x	1.4%	x
CC(=O)c1cccc(NC(=O)NC2CCCCC2)c1	0.5%	-25.3%	12.1%	5.9
CCN(C(=O)C(C)OC(=O)CCCNC(=O)c1ccc(Cl)cc1)c1ccccc1 (configuration not stated)	-0.6%	x	-0.7%	x
COC(=O)CN(c1ccc(C)cc1)S(=O)(=O)c1ccc(F)cc1	1.9%	-4.8%	-1.4%	-4.9
CSCC[C@H](NC(=O)OC(C)(C)C)c1nnc(SCC(=O)N(C)C)o1	-0.7%	-6.6%	-2.0%	-6.4
CCCCN1CC(C(=O)NCc2ccc(C)cc2)CC1=O (configuration not stated)	-3.3%	-1.6%	-12.2%	6.0
COc1ccccc1NC(=O)NNC(=O)c1ccncc1	5.6%	x	11.9%	x
Cc1ncc(CO)c(CNc2ccc(Oc3ccccc3)cc2)c1O	-0.1%	16.3%	-7.7%	x
Cc1nn(-c2nnc(C)c(=O)[nH]2)c(C)c1SCC(=O)Nc1ccc(F)cc1	-0.9%	-4.4%	-4.1%	9.9
COc1ccc2cc(CCNC(=O)c3ccc(S(=O)(=O)N4CCCC4)cc3)c(=O)[nH]c2c1	-0.6%	-0.1%	-5.6%	x
CCCCC1(C)OC(=O)C(=Cc2ccc(N(CC)CC)cc2)C(=O)O1 (configuration not stated)	-5.1%	-6.7%	-22.6%	-5.1
Cc1ccc(-n2c(SCc3ccc(C#N)cc3)nnc2-c2ccccn2)cc1	8.1%	-22.9%	6.1%	2.2
CC1(CCC(=O)N2CCCC(Nc3ccc(F)cc3)C2)CC1 (configuration not stated)	5.7%	1.6%	3.4%	x
CCN(CC)S(=O)(=O)c1ccc(O)c(C(=O)OCC(=O)NC2CCCC2)c1	-0.2%	-0.7%	15.5%	x
COCCNc1nc(N)c([N+](=O)[O-])c(NCC2CCCO2)n1 (configuration not stated)	4.7%	-7.7%	-15.9%	-6.1
CCCCN(CC)C(=O)Cc1ccc(Br)cc1	0.8%	-1.3%	2.8%	-1.1
O=C(COC(=O)/C=C/c1ccc(C(F)(F)F)cc1)NC1CCS(=O)(=O)C1 (configuration not stated)	0.4%	x	6.2%	x
CCCN1CCc2c(sc(NC(=O)c3ccc(S(=O)(=O)N(C)c4ccccc4)cc3)c2C(=O)NC)C1	u	20.0%	u	x
O=C(Nc1c(-c2ccccc2)nc2ccccn12)c1cccc(F)c1	-4.9%	-8.6%	-16.0%	x
Cc1nc2ncnn2c(C)c1Cc1ccccc1Cl	-0.3%	-16.0%	-1.6%	0.4
COc1ccc(NC(=O)N2CCCC(CCC(=O)N(C)CCc3ccccn3)C2)cc1 (configuration not stated)	-0.5%	-26.3%	8.2%	3.6
Cc1cccc(C(=O)OCC(=O)Nc2ccc(F)cc2)c1	4.8%	0.7%	-0.3%	x
COc1ccc(NC(=O)Cn2c([N+](=O)[O-])cnc2C)cc1Cl	0.8%	-0.2%	-6.4%	x
CCc1nnc(NS(=O)(=O)c2ccc(NC(=S)NC(=O)c3ccc(OC)c(OC)c3)cc2)s1	0.0%	-24.7%	u	-2.8
COC(=O)C1=NN(C(=O)c2ccccc2)C(O)(c2ccc([N+](=O)[O-])cc2)C1 (configuration not stated)	-0.5%	0.0%	8.3%	x
COc1ccc(S(=O)(=O)NC(C)C(=O)Nc2ccccc2C(F)(F)F)cc1 (configuration not stated)	0.3%	-1.4%	-4.0%	-2.9
Cn1c(=O)n(C)c2cc(NS(=O)(=O)c3ccc(Br)s3)ccc21	u	-5.0%	u	4.4
COCC(=O)N(CCc1ccc(OC)cc1)Cc1nc2ccccc2c(=O)[nH]1	-1.8%	-2.2%	-23.0%	-0.2
O=C(Nn1cnnc1)c1cc2c(s1)CCCC2	-1.0%	-12.7%	14.6%	13.3
CC(C)Cn1cc(C(=O)N2CCC(C)CC2)c2c3ccccc3n(C)c2c1=O	1.0%	7.8%	-9.2%	15.3
COc1ccc(CC(NC(C)=O)C(=O)NC2CCN(c3nnnn3-c3ccccc3)CC2)cc1 (configuration not stated)	-1.5%	-4.9%	3.7%	2.3
O=C(O)c1cccc(Nc2nc(Nc3ccccc3)nc(N3CCCC3)n2)c1	5.3%	4.5%	9.9%	-0.3
C/C(=N\N=C(N)N)c1cccc(Cl)c1	-1.1%	6.1%	5.0%	5.1
CCN(Cc1ccccc1)C(=O)C1CCN(Cc2sccc2C)CC1	1.1%	-9.6%	0.1%	3.0
CCOC(=O)c1csc(NC(=O)c2ccc(N3C(=O)CCC3=O)cc2)n1	-1.8%	6.4%	8.9%	5.8
O=C(Nc1ccc2[nH]ncc2c1)c1ccccc1Br	1.5%	-18.6%	-9.7%	x
O=c1c(OC2OC(CO)C(O)C(O)C2O)c(-c2ccc(O)c(O)c2)oc2cc(O)cc(O)c12 (configuration not stated)	12.5%	0.4%	-20.2%	-2.7
CC(C)(C)c1ccc(NC(=O)C2CCCN(c3cnccn3)C2)cc1 (configuration not stated)	0.3%	u	6.0%	x
CC[C@@H](C)[C@H](N)C(=O)NC[C@H]1O[C@@H](n2cnc3c(N)ncnc32)[C@H](O)[C@@H]1O	3.2%	x	-11.8%	x
CCOc1ccc(C(=O)CCCC(=O)c2ccc(OCC)cc2)cc1	u	-50.6%	14.2%	x
O=C(CSc1nnnn1-c1ccccc1)Nc1ccc(N2CCOCC2)c(Cl)c1	9.3%	-5.8%	-2.3%	1.8
CCN(CC)c1ccc(/C=N/NS(=O)(=O)c2ccc(CNC(C)=O)cc2)cc1	-1.1%	-8.7%	-14.7%	-7.8

# Continuation:
mol	Rango-impB inh	miR-21 reporter	Rango release inh	GLA inh pH 4.5
O=C(Nc1ccc(Cl)c(Cl)c1)Nc1nnc(-c2ccncc2)s1	-3.3%	-4.6%	4.2%	-9.8
CN(CC1CCCN(CCc2ccc(F)cc2)C1)C(=O)CCC(N)=O (configuration not stated)	0.2%	5.3%	-10.4%	x
O=C(NCc1cccnc1)c1ccc2c(c1)C(=O)N(Cc1ccccc1)C2=O	1.3%	1.0%	10.0%	x
COc1ccccc1N1CCN(S(=O)(=O)c2c[nH]c(=O)[nH]c2=O)CC1	-0.4%	x	-1.7%	x
CC(C)CNC(=O)NC1(C(F)(F)F)Oc2ccccc2O1	u	1.3%	0.2%	-6.6
CC1CN(c2ncnc3c2oc2ccccc23)CC(C)O1 (configuration not stated)	0.0%	-44.0%	17.0%	-1.5
CCOC(=O)c1cnc2c(cnn2C)c1NCCCN(C)C	6.3%	0.4%	13.9%	-23.7
CC(C)(C)c1cc(OC(=O)c2ccccc2F)ccc1O	-0.2%	4.1%	5.3%	-1.5
O=C1CC(C(=O)N2CCCc3ccccc32)CN1c1ccc(Cl)cc1 (configuration not stated)	0.3%	-0.1%	14.1%	x
COc1ccc(N(CC(=O)Nc2c(C)n(C)n(-c3ccccc3)c2=O)S(=O)(=O)c2ccc(F)cc2)cc1	-2.4%	-3.4%	-1.6%	1.7
O=C(N/N=C/c1ccc(N2CCOCC2)cc1)c1ccc(O)cc1	3.9%	-31.4%	-6.0%	-6.7
COc1cccc(C(=O)OCC(=O)c2ccc(Br)s2)c1	-3.3%	-3.6%	-0.8%	x
CN(C)S(=O)(=O)c1ccc(C(=O)NCC(=O)N/N=C/c2ccco2)cc1	-1.9%	0.3%	17.6%	7.3
COc1ccccc1-n1cc(-c2ccccc2)[nH]c1=S	4.2%	2.2%	-1.3%	x
Cc1cc(C(=O)Nc2ccc(N3CCCC3)c(Cl)c2)ccc1[N+](=O)[O-]	-0.5%	-53.4%	0.5%	-7.9
Cc1nc(NC(=O)COC(=O)C2CC3CCCC(C2)C3=O)c(Cl)cc1Cl (configuration not stated)	-4.7%	x	28.3%	x
CCOC(=O)CC(=O)CSc1nc(-c2ccccc2)cc(-c2ccc(Cl)cc2)c1C#N	u	-3.4%	u	0.1
CCOC(=O)CN1C(=O)C(O)(C2CCc3ccccc3C2=O)c2ccccc21 (configuration not stated)	-4.2%	-4.9%	14.6%	4.1
Cc1nn(-c2ccc(Cl)cc2)c2sc(C(=O)N3CCN(c4ccccn4)CC3)cc12	-1.5%	-5.5%	9.5%	3.2
COc1cc2c(cc1OC)-c1cc(Nc3cccc(F)c3)nc(=O)n1CC2	5.5%	-20.1%	21.9%	x
C#C[C@]1(O)CC[C@H]2[C@@H]3CCC4=C(CCC(=O)C4)[C@H]3CC[C@@]21C	-3.6%	-23.6%	u	x
Cc1ccsc1C1Nc2ccc3ncccc3c2C2=C1C(=O)CC(C)(C)C2 (configuration not stated)	u	21.4%	-15.5%	-18.1
O=S(=O)(Nc1nc2ccccc2nc1N1CCc2ccccc2C1)c1ccc(Br)cc1	u	-12.8%	-25.7%	8.3
CC(=O)Nc1ccc(S(=O)(=O)N2CCC(N(C)CCC(C)C)CC2)cc1	u	-1.6%	1.2%	-1.1
CC(=O)C1=C(c2ccccc2)NC(=O)NC1c1ccccc1OCC(=O)Nc1ccccc1 (configuration not stated)	0.9%	-6.9%	12.6%	-0.6

# Random excerpt: 2 compounds from above, in no set order.
mol	Rango-impB inh	miR-21 reporter	Rango release inh	GLA inh pH 4.5
O=C(O)C1C2CCC(O2)C1C(=O)Nc1ccc(F)c(Cl)c1 (configuration not stated)	3.9%	0.4%	-16.3%	x
CCOc1ccc(C(=O)CCCC(=O)c2ccc(OCC)cc2)cc1	u	-50.6%	14.2%	x

# (further entries)
mol	Rango-impB inh	miR-21 reporter	Rango release inh	GLA inh pH 4.5
COC(=O)c1sccc1NC(=O)c1c(C)c(-c2cccc(Cl)c2)nc2ccccc12	-0.4%	-7.5%	0.1%	-8.8
O=C(/C=C\c1ccco1)c1ccc(NC(=O)c2ccco2)cc1	u	-61.1%	-13.6%	-11.5
C[C@H]1CN([C@@H](C)CO)C(=O)c2cccc(NC(=O)C3CC3)c2O[C@H]1CN(C)CC1CCCCC1	-2.1%	x	6.9%	x
COc1ccc(-c2oc3ncn(Cc4ccco4)c(=N)c3c2-c2ccc(OC)cc2)cc1	u	-18.1%	-15.8%	-3.7
CC(C)NC(=O)CCCn1c(=S)[nH]c2cc3c(cc2c1=O)OCO3	-6.0%	1.2%	-1.2%	-6.7
CCCCC(=O)c1ccc(O)cc1	2.6%	-31.3%	3.7%	3.1

# High-throughput results as filed in PubChem.

# Not all compounds are listed; count on the stated rates, not on these rows.
